# Assay outcomes deposited in PubChem by several laboratories.
# RN4220 kill – S. aureus RN4220 growth inhibition; 330,000 tested, 0.33% active; inhibition, % (no concentration beside the values); OD600, 16 h;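 active means z-score of -3 or lower and OD600 up to 0.18 on both plates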;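 further: plate controls were untreated cells for no effect and reference antibiotic for full effect; stock transfer was 100 nL into about 80 µL; one replicate is shown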
# Mtb hypoxia rep – inhibitors of hypoxia-regulated fluorescent reporter in Mycobacterium tuberculosis; M. tuberculosis hypoxia-regulated fluorescent reporter, fluorescence; fluorescence inhibition, % (no concentration beside the values); 300,000 tested, 0.1% active; AID 1159583;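 active means 35 to 45% if threefold the growth effect, above 45% if 1.5-fold the growth effect; inactive means the rest, general growth blockers included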;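 further: wells of about 50 µL received 100 nL stock; 0% = vehicle wells and 100% = reference inhibitor wells; whole bacteria with a GFP reporter of the hypoxia response; strong numbers were not always called active; many hits fall short of the cut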
# PrP UTR inh – suppresses PrP 5' UTR mRNA reporter expression; 340,000 tested, 0.35% active; cell-based PrP 5' UTR mRNA reporter, plate reader; inhibition, % (no concentration beside the values); AID 488862;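 active means every replicate at 50% or more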;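 further: 0 = median of the neutral control wells; tested in H4 reporter cells; numbers are from one replicate; inactives centre near -14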
# ugtP null kill – growth inhibition of S. aureus ugtP deletion strain | S. aureus RN4220 ugtP deletion, OD600 growth, 16 h; some inactives read as strong as hits | growth inhibition, % (no concentration beside the values) | 330,000 tested, 0.54% active;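 active means z-score under -3 and OD600 up to 0.15 on both plates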;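 further: plate controls were untreated wells for no effect and antibiotic for full effect; wells of about 80 µL received 100 nL stock; the first replicate is given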
# Autofluor counter – flagged as autofluorescent in microsphere protease counterscreen; 360,000 tested, 3.1% active; compound autofluorescence counterscreen, microsphere flow cytometry; active compounds read high; fluorescence intensity (test concentration not listed); AID 624483;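 active means at least 3 SD above the mean of all compounds, about 16000 in these data; inconclusive means too few beads counted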;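 further: 100 nL of 1 mM stock went into each well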
# BJeLR lethal – BJeLR cell viability loss; inhibition, % (concentration not given with the values); BJeLR (HRASV12) viability, CellTiter-Glo ATP luminescence, 48 h; reference of the scale not given here; 300,000 tested, 0.17% active; AID 1554;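 active means replicate mean above 50%; inconclusive means above 50% but judged a plate artefact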;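 further: 50 nL library stock added to about 25 µL; numbers are from one replicate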
# Mtb hypoxia rep growth – recorded beside Mtb hypoxia rep, whose call it bears; growth inhibition, %; measured here: M. tuberculosis growth (absorbance);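 0% = vehicle and 100% = reference antibiotic; read after six days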
# Starred values were filed as active, the others as inactive; ? = inconclusive; / = no result given.
SMILES	RN4220 kill	Mtb hypoxia rep	Mtb hypoxia rep growth	PrP UTR inh	ugtP null kill	Autofluor counter	BJeLR lethal
COc1ccc(-n2c(CCc3ccccc3)nnc2SCC(=O)NCc2ccccc2)cc1	11	/	/	1	0	3183	-6
Cc1ccc(C(=O)NC(=S)Nc2ccccc2C(F)(F)F)cc1C	-6.4	1	3	-21	69	2476	-1
CN1C(=O)/C(=N/OC(=O)c2ccccc2Br)c2ccccc21	/	/	/	-17	/	1999	-6
CC(=NNC(=O)CNC(=O)c1ccc2c(c1)OCO2)c1ccco1	4.8	13	3	/	9	/	/
C=CCN1C(=O)C(Cc2ccccc2Cl)SC1=Nc1ccc(C(=O)O)cc1 (stereo not given)	7.2	4	0	-14	13	4252	-6
C[C@H](NC(=O)NCc1ccc(F)cc1)C(=O)O	/	/	/	-1	/	6884	-2
COc1ccccc1CNC(=O)N/C=C/c1ccc(Cl)cc1	-3.1	1	3	-1	0	4457	-2
CN(c1cccc(NC(=O)c2ccc(C(C)(C)C)cc2)c1)S(C)(=O)=O	4.5	14	12	-71	1	4545	16
S=C1SCN(Cc2cccnc2)CN1Cc1ccccc1	16	18	19	-20	0	4192	-29
CCOc1ccc(CC(=O)C2=C(N3CCOCC3)CC(C)(C)CC2=O)cc1OCC	2.8	-3	6	-4	11	4251	-9
COc1ccccc1N1CCN(C(=O)C(C)NC(=O)c2ccco2)CC1 (stereo not given)	-5.2	-3	3	-14	-7	4910	/
C=CCn1c(CCC(=O)Nc2ccc(C)c(Cl)c2)nnc1SCC(=O)Nc1ccccc1C	1.3	-1	5	-17	-7	9331	-6
CCCc1cc(=O)n2[nH]c(NCc3cccs3)nc2n1	-1.7	7	13	-21	-2	4062	-10
O=[N+]([O-])c1ccc2cn[nH]c2c1	11	1	2	2	0	4393	-12
Cc1c(NC(=O)CN2c3cccc4cccc(c34)S2(=O)=O)c(=O)n(-c2ccccc2)n1C	1.3	6	10	-14	1	2470	0
COc1ccc(CCNC(=O)CC(C)=NNC(=O)COc2ccc(C)cc2Br)cc1OC	4.5	12	-1	/	9	/	/
CS(=O)(=O)N1Cc2ccccc2CC1C(=O)OCC(=O)Nc1ccc2ccccc2c1 (stereo not given)	-1.0	0	-2	2	-9	?	2
COc1cccc(C2C(C#N)=C(N)N(c3ncn[nH]3)C3=C2C(=O)CCC3)c1 (stereo not given)	1.9	8	1	-17	12	8772	4
CCc1cccc(C)c1NC(=S)N1CCCCC1c1cccnc1 (stereo not given)	1.7	-2	10	/	9	4652	3
O=C(c1ccc(S(=O)(=O)Nc2ccc(F)cc2)cc1)N1CCN(C(=O)c2ccco2)CC1	2.9	/	/	-21	5	3871	9
Cc1ccccc1C(=O)Nc1ccccc1Sc1ccccc1	-1.5	0	-1	14	33	2972	1
CN(C)c1ccsc1C(=O)NNS(=O)(=O)c1ccc(Cl)cc1	4.4	-4	2	-26	2	3750	-5
CCOC(=O)C1C2COc3ccc(Cl)cc3C2N2C(=O)c3ccc(C)cc3NC(=O)[C@@]12C (stereo not given in full)	-1.7	-4	7	/	-21	/	/
COc1ccc(CCN2CCCC(CN(C)C(=O)c3cc(C)oc3C)C2)cc1 (stereo not given)	3.0	3	8	-47	4	4886	-3
COc1cc(/C=C(\C#N)C(=O)NCC2CCCO2)ccc1OCC(N)=O (stereo not given)	-4.5	17	4	-1	4	4332	2
CC(C)(C)c1ccc(C(=O)NCC(=O)OCC(=O)Nc2ccccc2[N+](=O)[O-])cc1	4.5	6	0	-17	2	2466	1
COc1ccc(/C=C/C(=O)N(CC(C)C)C2CCS(=O)(=O)C2)cc1 (stereo not given)	1.2	-4	-3	-9	1	/	-5
Nc1nc(SCC(=O)Nc2ccc(C(F)(F)F)cc2)[nH]c(=O)c1NC(=O)c1ccc(F)c(F)c1	5.0	4	10	-11	-4	5631	-1
O=C(Nc1ccccc1Cl)C1CCCN(S(=O)(=O)c2ccc(-n3cnnn3)cc2)C1 (stereo not given)	2.5	-1	4	-26	6	3761	4
Cc1c(C(=O)N2CCOCC2)c(S(=O)(=O)Nc2ccccc2)c(C)n1C	1.2	-4	7	0	-4	5949	-1

# Of the compounds above, these have a Cl atom.
SMILES	RN4220 kill	Mtb hypoxia rep	Mtb hypoxia rep growth	PrP UTR inh	ugtP null kill	Autofluor counter	BJeLR lethal
C=CCN1C(=O)C(Cc2ccccc2Cl)SC1=Nc1ccc(C(=O)O)cc1 (stereo not given)	7.2	4	0	-14	13	4252	-6
COc1ccccc1CNC(=O)N/C=C/c1ccc(Cl)cc1	-3.1	1	3	-1	0	4457	-2
C=CCn1c(CCC(=O)Nc2ccc(C)c(Cl)c2)nnc1SCC(=O)Nc1ccccc1C	1.3	-1	5	-17	-7	9331	-6
CN(C)c1ccsc1C(=O)NNS(=O)(=O)c1ccc(Cl)cc1	4.4	-4	2	-26	2	3750	-5
CCOC(=O)C1C2COc3ccc(Cl)cc3C2N2C(=O)c3ccc(C)cc3NC(=O)[C@@]12C (stereo not given in full)	-1.7	-4	7	/	-21	/	/
O=C(Nc1ccccc1Cl)C1CCCN(S(=O)(=O)c2ccc(-n3cnnn3)cc2)C1 (stereo not given)	2.5	-1	4	-26	6	3761	4

# (further entries)
SMILES	RN4220 kill	Mtb hypoxia rep	Mtb hypoxia rep growth	PrP UTR inh	ugtP null kill	Autofluor counter	BJeLR lethal
CCOC(=O)C=c1sc(=Cc2ccc(C)cc2)c(=O)n1CC(=O)NCc1ccco1	1.7	-13	-2	/	5	/	/
COc1ccc(C)cc1Cn1c(S(C)(=O)=O)nc2ccccc21	2.5	6	9	-15	11	7789	0
CC1CCN(C(=O)COc2ccccc2F)CC1	5.1	/	/	-28	-6	2294	-7
O=C(NN=Cc1ccccc1OCc1ccccc1)c1cccs1	8.3	0	2	/	-6	/	/
CC(=O)ON1C(C)(C)Cc2noc(N)c2C1(C)C	-12	17	5	-11	7	3321	-3
CCCCNc1nc(N)ncc1[N+](=O)[O-]	/	/	/	-9	/	3912	3
Cn1nc(C(=O)Nc2sccc2C(N)=O)ccc1=O	5.6	6	1	6	5	6236	7
O=C(O)C1CCC(CNS(=O)(=O)c2ccccc2)CC1 (stereo not given)	-0.7	0	-2	-22	3	3840	1
O=C(CSCc1ccc(Cl)cc1)NN=C1CCCCCC1	3.5	12	8	-12	6	2406	4
CCN1CCN(C(=O)c2ccc(Sc3ccccc3Cl)c([N+](=O)[O-])c2)CC1	2.3	6	7	-14	0	2181	15
COc1ccc(C(=O)N/C(=C/c2cccnc2)C(=O)Nc2cccc(C(C)=O)c2)cc1OC	1.4	5	8	-13	6	3736	3
COc1ccc(N2CC(C(=O)N[C@H](C(=O)NC3CCCCC3)C(C)C)CC2=O)cc1 (stereo not given in full)	2.7	-2	8	-21	4	5147	2
Cc1cc(C)nc(N2CCN(c3nnnn3-c3ccccc3)CC2)n1	1.9	/	/	-10	4	5386	-6
CN(C)C(=O)N1CCCC(C(=O)NCCc2ccccc2)C1 (stereo not given)	2.8	10	4	-27	1	24323*	-10
COc1ccc(S(=O)(=O)N2CCC(C(=O)N[C@H](C(=O)NCc3ccco3)C(C)C)CC2)cc1	-0.1	2	2	1	5	4477	3
c1ccc(CSc2ncnc3c2sc2nc(N4CCOCC4)c4c(c23)CCCC4)cc1	-5.7	8	3	-4	27	2612	2
O=C(O)CNS(=O)(=O)/C=C/c1ccccc1	1.6	11	-2	-19	0	4477	-7
FC(F)(F)c1ccc(Cl)c(NC(=S)NN=Cc2ccccc2Cl)c1	6.6	6	0	/	71	/	/
Cc1csc(SCc2ccc(C(=O)O)cc2)n1	3.3	8	11	-15	3	8909	-4
Cc1nc(NCC2CC2)c2nnn(Cc3ccccc3)c2n1	8.1	17	5	-23	2	3724	/
CCOc1ccccc1Nc1nc2ccccc2[nH]1	3.1	2	1	-11	12	8400	-10
NC(=O)COC(=O)/C=C/c1ccc(S(=O)(=O)N2CCCCCC2)cc1	-4.7	1	-3	-1	-4	4118	-1
O=C1CCC[C@@H]2[C@H]3CCC[N+]4([O-])CCC[C@@H](CN12)[C@@H]34 (stereo not given in full)	1.2	-2	-5	-3	-2	3519	-3
N#Cc1ccc(OCc2ccc(C(=O)O)o2)cc1	4.5	6	-13	-36	6	2868	-1
CCCCc1nc2cc(C(=O)N3CCCC3)ccc2o1	2.5	5	2	-31	3	6075	1
COCCSc1ccccc1C(=O)Nc1nnc(C)s1	1.9	7	6	-23	6	9125	7
Nc1nc(SCC(=O)N2CCCc3ccccc32)[nH]c(=O)c1-c1ccccc1	3.3	16	5	-16	-6	7389	-11
O=C(COC(=O)/C=C/c1ccco1)Nc1cc(S(=O)(=O)N2CCOCC2)ccc1Cl	-0.5	0	-1	-7	-2	2905	/
CCn1ncc(Br)c1C(=O)Nc1sc2c(c1C(=O)OC)CCC2	8.3	-4	-3	-55	18	10191	5
Fc1ccc(C2NCCc3[nH]cnc32)cc1 (stereo not given)	3.5	13	-2	-19	2	7775	2
CN(CC(=O)Nc1ccc(F)cc1)CC(=O)N1CCCCC1	-0.1	11	12	-6	3	3702	/
C#CCOc1nc2c(c(=O)n(C)c(=O)n2C)n1Cc1ccccc1	2.1	3	9	-12	4	6006	-4
CC1CCCCN1C(=O)COC(=O)/C=C/c1ccc2ccccc2n1 (stereo not given)	0.2	15	20	-26	-6	4498	2
CC(OC(=O)c1cccc(N2C(=O)c3ccccc3C2=O)c1)C(=O)Nc1ccc(N(C)C)cc1 (stereo not given)	/	/	/	2	/	2507	-1
CCc1ccc(-c2ccc(SCC(=O)NCC3CCCO3)nn2)cc1 (stereo not given)	9.9	12	-3	-24	6	4444	5
Cc1oc(-c2ccc(Cl)cc2)nc1CN1CCCC(C(=O)N2CCN(C(=O)c3ccco3)CC2)C1 (stereo not given)	5.5	/	/	-1	2	6393	8
Cc1ccc2cccc(OCC(=O)N3CC(C)CC(C)C3)c2n1 (stereo not given)	0.9	8	2	-6	2	3455	-2
COc1cc(C2NCc3ccccc3-n3cccc32)ccc1O (stereo not given)	3.5	/	/	15	-2	4305	-2
Cc1ccc(CNC(=O)CCc2ccc(S(=O)(=O)NCC(C)C)cc2)cc1	3.2	4	1	-9	4	4431	-9
CCCCn1c(N)c(N(CCOC)C(=O)c2cc(CC)c(C)s2)c(=O)[nH]c1=O	2.4	7	1	-11	7	7707	0
Cc1cc2oc(=O)cc(CSc3nnc(-c4cccs4)o3)c2cc1C(C)C	3.5	-1	1	-6	3	1956	-13
CC(C)NC(=S)N1CCN(c2ncccn2)CC1	1.5	3	4	-15	2	2003	-6
Cc1cc(-c2n[nH]c(=S)n2/N=C/C=C/c2ccco2)n[nH]1	/	/	/	-12	/	3540	1
O=C(NNC(=O)C1CCN(Cc2ccccc2)CC1)c1cccs1	1.7	-2	5	-5	-3	4291	2
CC(C)CC(NC(=O)c1nc[nH]c1C(=O)NCCCCCNC(=O)OC(C)(C)C)C(=O)OCc1ccccc1 (stereo not given)	7.6	3	5	/	10	/	/

# Pulled one by one from the entries so far (3):
SMILES	RN4220 kill	Mtb hypoxia rep	Mtb hypoxia rep growth	PrP UTR inh	ugtP null kill	Autofluor counter	BJeLR lethal
O=C(NNC(=O)C1CCN(Cc2ccccc2)CC1)c1cccs1	1.7	-2	5	-5	-3	4291	2
CC1CCCCN1C(=O)COC(=O)/C=C/c1ccc2ccccc2n1 (stereo not given)	0.2	15	20	-26	-6	4498	2
Cc1ccc(CNC(=O)CCc2ccc(S(=O)(=O)NCC(C)C)cc2)cc1	3.2	4	1	-9	4	4431	-9
